High-throughput results: PubChem BioAssay, Broad Institute
Ran FRET: inhibitors of Ran–importin-beta complex formation, primary screen, biochemical, CFP-Ran/YFP-importin-beta FRET, RCC1, cell-free (AID 434961); Regulator of chromosome condensation (Homo sapiens) + GTP-binding nuclear protein Ran …; CFP-Ran/YFP-importin-beta FRET, cell-free; active compounds read high; inhibition, %; 7,700 compounds, 0.2% hits;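 active means more than half of the replicate wells above 15% inhibition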;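 further: 0% = DMSO wells and 100% inhibition = RanGDP control wells on each plate; stock of unstated strength diluted about 400-fold; mean of two wells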
* = called active by the depositor. The list is partial; rates above refer to the full screens.

SMILES	Ran FRET
C[C@@H]1CN([C@@H](C)CO)C(=O)CCCn2cc(nn2)CO[C@@H]1CN(C)C(=O)Oc1ccc2ccccc2c1	9.4
C[C@@H]1CN([C@@H](C)CO)C(=O)CCCn2nncc2CO[C@H]1CN(C)C(=O)Oc1ccc2ccccc2c1	-2.3
